Sfp PPTase inh: Sfp phosphopantetheinyl transferase inhibition | Q9F4F7 | Biochemical Sfp PPTase activity, qHTS | Potency, µM, inactives show max response, negative = inhibition, hits mostly inhibitors | hit rate 3.5% among 310,000; active = well fitted inhibition curve with a large enough effect; inconclusive = small, poorly fitted or top-dose-only effect, or another doubt; inactive = no such curve, though single readings can be large or run the other way;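 note: the enzyme is Sfp with the accession as filed and its product quenches rhodamine fluorescence; potency is the fitted concentration of half-maximal effect; 0% = enzyme reaction without inhibitor and -100% = no enzyme wells; top concentration of the series not given in the record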
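With Hepes-Na pH 7.6 buffer containing 10 mM MgCl2, Sfp (15 nM) modified BHQ-2-YbbR (12.5 uM) using rhodamine-CoA (5 uM). Two reads 30 minutes apart at 525/598 nm yielded each well's rate.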
TRPV1 PAM: human TRPV1 potentiation; Q8NER1; TRPV1-expressing cells, Fluo-8 calcium influx, capsaicin EC20 potentiation; host cell line not named in the record; control for the full effect not named in the record; potentiation, % at 8.33 µM; hit rate 0.02% among 320,000; AID 540277; active means potentiation above 80%; inconclusive means 30% to 80%; inactive means below 30%; note: 0% is about no effect
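Fluo-8 calcium influx in TRPV1-expressing cells, kinetic read (ex 480/em 520 nm). Compound added and read 3 min for agonist activity, followed by capsaicin at EC20 final and 2 min further read for enhancement.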
PINK1 modulator: modulators of PINK1 expression | hit rate 0.2% among 410,000 | Potency, µM (series often up to 76.6 µM), for the others: at the highest dose activation (PINK1 increase), actives largely listed as activators | PINK1 immunofluorescence, high-content cytometry, 24 h; active = well fitted activation curve with a large enough effect; inconclusive = small, poorly fitted or top-dose-only effect; inactive = flat fitted curve, though single readings scatter; cell line not stated here;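 note: potency is the fitted concentration of half-maximal effect; % of control where 0% means no effect; nearly all actives have a fitted effect of over 65% in size; a mitochondrial uncoupler was the plate control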
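A stable cell line was treated with compounds at 5 concentrations for 24 hours, with CCCP as control. PINK1 levels and mitochondrial localization were measured by immunofluorescence with mitochondrial, cell and nuclear markers after fixation, read by laser-scanning cytometry.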
D2 potentiator: human D2 receptor positive allosteric modulation; P14416; DiscoveRx D2 beta-arrestin cells, luminescence, 90 min; 100% = 57 uM dopamine signal; potentiation, % (test concentration not listed); hit rate 0.23% among 360,000; AID 624464; active = potentiation of 50% or more; inconclusive = 30% to 50%; inactive = 30% or less;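 note: compound concentration not given in the record; tested on top of an EC20 dose of dopamine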
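D2 cells co-treated with compound plus 50 nM dopamine (EC20) for 90 min at 37 deg C to detect potentiation. Beta-arrestin recruitment was read as enzyme-fragment luminescence after 1 h at ambient temperature. Full response was set by 57 uM dopamine.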
CtBP-E1A inh: blocks the CtBP interaction with E1A; activity change, % (no concentration beside the values); hit rate 0.49% among 340,000; AlphaScreen GST-E1A/His-CtBP binding, 1536-well; hits give low values; control for the full effect not named in the record; in the data active means activity change below about -65%; inconclusive means about -30% to -65%; inactive means above about -30%; note: % is set by controls: 0 for no effect and ±100 for the full control effect; compound concentration not given in the record
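Protein mix (5X: 125 nM each GST-E1A, His-CtBP) was incubated with pinned compound 2 h at 37 deg C in dark, in 50 mM Tris pH 8.0 buffer with 300 mM NaCl. Glutathione donor and nickel acceptor beads followed; AlphaScreen signal read after 1 h.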
Six1-Eya2 inh: blocks human Six1 binding to Eya2; hit rate 0.56% among 360,000; activity change, % (test concentration not listed); Q15475+O00167; AID 651725; AlphaScreen GST-Six1/His-Eya2 binding, biochemical; hits give low values; control for the full effect not named in the record; in the data active = activity change below about -65%; inconclusive = about -30% to -65%; inactive = above about -30%; note: % is set by controls: 0 for no effect and ±100 for the full control effect; compound concentration not given in the record
Target sequence (O00167 whole entry, looked up): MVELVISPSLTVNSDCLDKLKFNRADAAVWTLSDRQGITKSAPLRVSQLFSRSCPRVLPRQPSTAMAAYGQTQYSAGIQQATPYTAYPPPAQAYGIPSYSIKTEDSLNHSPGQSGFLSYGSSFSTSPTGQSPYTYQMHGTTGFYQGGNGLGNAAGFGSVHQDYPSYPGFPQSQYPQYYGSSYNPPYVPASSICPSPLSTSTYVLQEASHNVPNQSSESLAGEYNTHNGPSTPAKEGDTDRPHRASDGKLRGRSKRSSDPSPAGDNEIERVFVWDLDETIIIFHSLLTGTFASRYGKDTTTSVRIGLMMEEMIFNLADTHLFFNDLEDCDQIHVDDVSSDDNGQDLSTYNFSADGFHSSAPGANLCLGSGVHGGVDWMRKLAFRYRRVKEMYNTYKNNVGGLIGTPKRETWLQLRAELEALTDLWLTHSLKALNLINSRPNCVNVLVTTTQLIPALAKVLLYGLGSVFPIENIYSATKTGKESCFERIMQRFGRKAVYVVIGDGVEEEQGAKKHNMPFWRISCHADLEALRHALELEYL
Target sequence (Q15475 whole entry, looked up): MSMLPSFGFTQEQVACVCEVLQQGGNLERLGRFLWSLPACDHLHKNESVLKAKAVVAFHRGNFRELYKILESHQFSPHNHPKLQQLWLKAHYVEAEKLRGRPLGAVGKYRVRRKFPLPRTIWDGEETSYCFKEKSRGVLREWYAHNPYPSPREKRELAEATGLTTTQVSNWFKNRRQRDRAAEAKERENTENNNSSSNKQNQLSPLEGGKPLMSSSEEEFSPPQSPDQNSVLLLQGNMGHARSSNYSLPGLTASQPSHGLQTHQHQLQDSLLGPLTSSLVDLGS
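AlphaScreen with GST-Six1 and His-Eya2 (5X mix: 250 nM and 500 nM), glutathione donor and nickel acceptor beads; buffer 50 mM Tris pH 8.0, 300 mM NaCl, 1 mM TCEP; 1 h at 37 C in the dark.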
D2 agonist: human D2 receptor agonism in beta-arrestin assay; P14416; DiscoveRx PathHunter D2 beta-arrestin, luminescence, 90 min; 100% = 57 uM dopamine signal; activation, % (no concentration beside the values); hit rate 0.084% among 360,000; in the data active = activation above about 40%; inconclusive = about 15% to 40%; inactive = below about 15%; note: compound concentration not given in the record; the text of the record calls up to 30% inactive
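Agonist mode: compounds alone added to overnight-plated D2 PathHunter cells for 90 min at 37 C, with 57 uM final dopamine (EC100) defining full response. Beta-arrestin recruitment detected by chemiluminescent reagent, read after 1 h at ambient temperature.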
* hit, by the source's call; ? = inconclusive; · = no result given; [ ] = dose if it differs, or a comment. This is a random part of the collection; overall some 3.7% were active at least once.

SMILES	Sfp PPTase inh	TRPV1 PAM	PINK1 modulator	D2 potentiator	CtBP-E1A inh	Six1-Eya2 inh	D2 agonist
COC(=O)c1ccc2c(=O)n(CCN3CCOCC3)c(SCC(=O)NCc3ccccc3)nc2c1	-1%	-7	2.1%	-3	3	2	1.6
CCOC(=O)C1(Cc2ccc(Cl)cc2)CCN(C(=O)c2cscn2)CC1	-6%	-13	2.9%	1	7	5	-5.5
O=C(Nc1ccccc1)c1ccc(NC2CCCCC2)c(S(=O)(=O)N2CCOCC2)c1	5%	15	-1.4%[38.3 µM]	-4	-9	-2	3.1
O=C(Nc1ccc2c(c1)nc1n2CCN(Cc2ccccc2)C1)c1cccs1	-10%	10	·	19	-87*	-80*	3.9
Cc1sc2ncnc(Sc3ccccc3C(=O)O)c2c1C	-19%	6	-0.5%	1	-18	9	-5.7
O=C(CNC(=O)c1ccccc1)Oc1cccc(Cl)c1	·	·	0.3%	-7	5	2	0.8
Cc1cccc(C)c1NC(=O)C1CCCN1C(=O)OC(C)(C)C (centres undefined)	0%	-19	1.0%	-2	6	0	-2.3
CCNC(=O)Cc1ccc(NS(=O)(=O)c2ccc(F)cc2)cc1	-6%	16	12%[38.3 µM]	8	-3	6	-2.2
COc1ccc(Nc2nc(N)c([N+](=O)[O-])c(N3CCOCC3)n2)cc1	-1%	2	-1.2%	-4	·	-5	-5.3
Cc1sc(NC(=S)NC(=O)c2ccco2)c(C#N)c1C	40µM*	4	5.6%	-7	-1	-13	-3.1
Cc1csc(-c2cnn(-c3ccccc3)c2NC(=O)c2cccc(C(F)(F)F)c2)n1	14%	2	0.7%	-23	7	-1	-3.7
O=C(Nc1ccncc1)c1ccc2c(c1)S(=O)(=O)c1ccccc1C2=O	9%	-5	6.5%	11	2	-8	7.5
C=CCCCCCCCCc1nc(=S)[nH][nH]1	-8%	-13	-1.6%	-13	1	-5	-1.9
O=C(O)C1C2C=CC(C2)C1C(=O)NCc1ccco1 (centres undefined)	-1%	-4	0.8%	-8	3	2	5.2
COc1ccc(OC)c(CN2CCN(Cc3cc(=O)oc4cc(O)ccc34)CC2)c1	-2%	8	-1.2%	-17	-6	-12	-0.3
O=C(C1CCCN(Cc2ccc(Br)cc2)C1)N1CCCCC1 (centres undefined)	?	-32	-1.0%	-14	·	-1	-0.6
CCN(CC)C(=O)Cn1cc(C(=O)C(=O)NCc2ccccn2)c2ccccc21	-5%	4	0.8%	-4	-2	0	-2.4
CN1OC[C@@H]2CN[C@H](c3cccc(N4CCOCC4)c3)C[C@@H]21	·	·	0.3%	0	2	2	-12
O=C(COC(=O)c1cc(S(=O)(=O)N2CCCC2)ccc1O)Nc1ccccc1Br	·	·	0.2%	-13	-1	1	1.4
C[C@H](CO)N1C[C@H](C)[C@@H](CN(C)C(=O)Nc2ccc3c(c2)OCO3)Oc2c(NS(=O)(=O)c3cn(C)cn3)cccc2C1=O	·	·	2.1%	-4	5	4	-0.2
CC1=C(C(=O)N2CCOCC2)CC(CC(=O)NCC2CCCCC2)C(=O)N1CCC1=CCCCC1 (centres undefined)	·	·	0.8%	0	-20	2	-0.9
N#CC1=C(N)C(C#N)(C#N)[C@H](c2ccoc2)[C@H]2CN(Cc3ccccc3)CC=C12	-15%	?	?	-17	-14	-11	1.0
CCOC(=O)c1c(C)c(-c2ccccc2)n(CC(=O)N2CCCC2)c1C	10%	?	1.6%	-3	-1	-6	-1.9
COc1ccc(C(=O)c2[nH]c(N)c(C(=O)NCCc3c[nH]c4ccccc34)c2-c2c(F)cccc2Cl)cc1	·	·	5.0%	·	-5	-13	·
Cc1cc(NS(=O)(=O)c2ccc(NC(NC(=O)C(C(F)(F)F)C(F)(F)F)(C(F)(F)F)C(F)(F)F)cc2)no1	12%	-6	1.5%	1	0	-12	-2.8
Cc1nnc2ccc(-c3ccc(NC(=O)c4cccnc4Cl)cc3)nn12	17%	3	1.5%	-1	-4	-6	-3.0
Cc1ccc(Cl)cc1NC(=O)CSc1sc2c(O)cc(=O)[nH]c2c1C#N	?	17	-1.5%	-4	-5	-5	0.8
O=C(Cn1cnc2ccccc2c1=O)c1ccc2c(c1)OCCO2	11%	5	0.5%	-7	2	-1	0.4
C[C@H](CO)N1C[C@H](C)[C@@H](CN(C)Cc2ccccc2)OCCCC[C@H](C)Oc2ccc(N(C)C)cc2C1=O	·	·	-1.6%	-4	3	-1	-3.6
Cc1ccccc1NC(=S)NC12CN3CN(CN(C3)C1)C2	22%	4	6.0%	10	14	6	0.7

Of the compounds above, these contain an aryl methoxy group.
SMILES	Sfp PPTase inh	TRPV1 PAM	PINK1 modulator	D2 potentiator	CtBP-E1A inh	Six1-Eya2 inh	D2 agonist
COc1ccc(Nc2nc(N)c([N+](=O)[O-])c(N3CCOCC3)n2)cc1	-1%	2	-1.2%	-4	·	-5	-5.3
COc1ccc(OC)c(CN2CCN(Cc3cc(=O)oc4cc(O)ccc34)CC2)c1	-2%	8	-1.2%	-17	-6	-12	-0.3
COc1ccc(C(=O)c2[nH]c(N)c(C(=O)NCCc3c[nH]c4ccccc34)c2-c2c(F)cccc2Cl)cc1	·	·	5.0%	·	-5	-13	·

Next section.
SMILES	Sfp PPTase inh	TRPV1 PAM	PINK1 modulator	D2 potentiator	CtBP-E1A inh	Six1-Eya2 inh	D2 agonist
CCOP(=O)(OCC)/C(=N/OC(=O)c1ccccc1C)C(N)=O	-1%	11	0.0%	-30	14	7	-3.1
CC(=O)c1ccc(OC(=O)/C=C/c2ccccc2)cc1	28%	-11	2.1%	20	·	?	4.3
Cc1cc(-c2nc3ccccc3c(=O)o2)ccc1[N+](=O)[O-]	-4%	-7	1.8%	7	3	4	0.8
CC(=O)Nc1nnc(SCC(=O)N2C(C)CCCC2C)s1 (centres undefined)	30%	1	5.5%	-6	10	5	-3.0
COc1ccc(C(CNC(=O)CNS(=O)(=O)c2ccc(NC(C)=O)cc2)N2CCOCC2)cc1 (centres undefined)	·	28	1.5%	-10	9	2	-4.1
O=C(O)Cn1cccc1C(=O)c1ccccc1	21%	-6	1.6%[38.3 µM]	-12	16	5	-2.5
CCCn1c(=O)c2c(c3ccccc31)OC(C)C(=O)N2 (centres undefined)	-9%	15	2.5%	0	2	7	-0.9
O=S(=O)(c1ccc(NC(=S)NCc2ccco2)cc1)N1CCCCC1	9%	-9	0.0%	-4	-8	-18	0.5
Cc1cc(C)cc(N(CC(=O)Nc2ccccc2C(=O)N2CCOCC2)S(C)(=O)=O)c1	27%	9	2.3%	10	3	6	-3.5
O=C(CCN1CCCCC1)Nc1ccccc1	13%	-18	2.1%	-9	-23	7	-7.4
CCN(CC(=O)N1CCCCCC1)S(=O)(=O)c1ccc(Cl)cc1	-6%	17	-0.3%	-11	-3	-1	-0.9
N#C/C(=C\c1ccc(N2CCCC2)c([N+](=O)[O-])c1)c1nc2ccccc2[nH]1	-36%	11	·	0	0	5	-0.3
Cc1c(N=Cc2ccccn2)c(=O)n(-c2ccccc2)n1C	-23%	2	-2.7%[38.3 µM]	2	7	-1	-0.8
CC(OC(=O)c1nc(Cl)ccc1Cl)C(=O)c1ccccc1 (centres undefined)	·	-2	-1.0%	-19	-25	4	-4.1
C=CCOc1ccc(/C(O)=C2\C(=O)C(=O)N(CCN(C)C)C2c2cccs2)cc1 (centres undefined)	15%	2	-1.8%	-4	-2	-2	-1.4
O=C(COC(=O)c1nc(Cl)ccc1Cl)Nc1ccc2[nH]c(=O)[nH]c2c1	·	-7	-2.9%	10	-17	-22	0.8
CC(NC(=O)COC(=O)CNC(=O)c1ccccc1Cl)C1CC2CCC1C2 (centres undefined)	·	-28	1.7%	-12	-2	19	-5.3
CCN1CCN(C(=O)C2CCN(c3nnc(C)c4c(C)n(-c5ccc(C)cc5)nc34)CC2)CC1	-4%	-3	4.7%	-15	·	-3	-4.8
N#CC1=C2SCN(Cc3ccccc3)CN2C(=O)CC1c1ccccc1F (centres undefined)	2µM*	·	4.3%	-9	0	-1	-5.0
CCN(CC)C(=O)Cn1nc(-c2ccc(Cl)cc2)c2ccccc2c1=O	-4%	-6	1.4%	-9	-5	-2	2.4
COc1cccc(C(=O)NC(C)c2ccc(Br)cc2)c1 (centres undefined)	3%	-11	2.7%	-17	0	6	-2.5
CCOc1ccc(CCNc2nc3c(c(=O)n(C)c(=O)n3C)n2CC)cc1OCC	8%	?	3.8%[38.3 µM]	2	-1	-2	-1.0
O=[N+]([O-])c1ccc(-c2nnc(CNC3CCCC3)o2)cc1	?	-7	0.1%	-3	15	0	-1.5
COc1cc(C2C(C#N)=C(N)N(Nc3ccccc3)C3=C2C(=O)CC(C)(C)C3)ccc1OCc1ccccc1 (centres undefined)	11%	18	-1.0%	-6	-1	-4	-4.9
CS(=O)(=O)N(CC(=O)NCc1ccncc1)c1ccc(F)c(Cl)c1	-2%	4	-1.6%	-1	-18	4	4.4
Cc1ccc2ccc3cccc4ccc1c2c34	·	7	18%	-3	38	9	-5.6
COc1ccc(C2(CNC(=O)c3ccc(N)cc3)CCCC2)cc1	16%	12	0.1%	-2	·	13	-1.5
O=S1(=O)CC(N2CCSCC2)CN1Cc1cn(Cc2ccccc2)nn1 (centres undefined)	·	·	-0.1%	·	2	4	·
COC(=O)c1sccc1NC(=O)Nc1ccc(C)c(C)c1	-2%	-5	0.1%	0	-16	-9	-5.6
COc1ccc(OC)c(NC(=O)NNC(=O)COc2ccc(F)cc2F)c1	14%	15	0.9%	-31	-3	10	-3.6
COc1ccc(Cc2nnc(NC(=O)CS(=O)(=O)c3ccc(C)cc3)s2)cc1OC	14%	-12	-2.6%	-3	-1	-6	-1.9
COc1ccccc1NC(=S)NNC(=O)c1nn(C)cc1Cl	-11%	-3	0.9%	-19	-23	-8	-2.7
Cc1cc(-c2sccc2C)nc(-n2cccc2)n1	-17%	-2	1.0%[38.3 µM]	-20	21	17	-3.3
O=C1N=C(N2CCCCC2)S/C1=C/C1=Cc2ccccc2OC1	-8%	-14	1.2%	-6	4	9	1.5
COCCN(C(=O)CSc1nc(-c2ccccc2)cn1N)c1c(N)n(Cc2ccccc2)c(=O)[nH]c1=O	·	3	2.4%	11	6	-6	-0.6
CCCn1nc(NS(=O)(=O)c2cccc3nonc23)c2cc3cccc(C)c3nc21	3%	-16	1.4%	-13	·	-16	-3.8
O=C(C1CCN(C2CC(=O)N(c3cccc(Cl)c3)C2=O)CC1)N1CCCC1 (centres undefined)	-6%	-5	3.0%	-1	8	0	-3.5

Source: PubChem
